NPYLR7 ag = activates Aedes aegypti NPYLR7 receptor; activation, % at 10 µM; hit rate 0.15% among 270,000; HEK293T NPYLR7/Galpha15, GCaMP6s calcium fluorescence; AID 1259423; in the data active means activation above about 40%;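 further: 0% = vehicle and 100% = reference agonist at the receptor; some compounds past the cut are filed as inactive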
NPYLR7 ag max-min = also measured in NPYLR7 ag; calls as there; activation, %; measured here: Max-Min RFU normalised activation; some inactives read as strong as hits;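 span of the calcium signal over five minutes; 0% = vehicle and 100% = native peptide agonist; compound fluorescence can raise it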
Starred values were filed as active, the others as inactive; & = joins results of further samples. A portion of the library, so the mix of outcomes need not match the whole.

SMILES	NPYLR7 ag	NPYLR7 ag max-min
COc1c(N2CCNC(C)C2)c(F)cc2c(=O)c(C(=O)O)cn(C3CC3)c12 (stereo not drawn)	-7&-2	-16&-6
CC(C)COc1nc(-c2ccc(C(F)(F)F)cc2)n(-c2ccc(NC(=O)C3CCC3)cc2)n1	31	27
CCCC(=O)Oc1ccc(NS(=O)(=O)c2ccc(C)cc2)c2ccccc12	-7	-9
CN(CCCCCCCCCCN(C)C(=O)Oc1cccc([N+](C)(C)C)c1)C(=O)Oc1cccc([N+](C)(C)C)c1	-3	-5
CCc1ccc(C(=O)NNC(=S)Nc2sc(CC)cc2C(=O)OC)s1	-11	-16
CCC(C)(C)C(=O)N1CCN(c2ccc(NC(=O)c3ccco3)cn2)CC1	3	-1
CC(C)(C)c1ccc(NC(=O)CSc2nc3[nH]ncc3c(=O)n2-c2ccccc2)cc1	2	6
COc1ccc(CN(C(=O)Nc2ccc(C(F)(F)F)cc2)C(C)C)cc1OS(C)(=O)=O	-9	-10
Cc1nnc(-c2cn(CC(=O)NC3CCCC3)c3ccccc23)o1	8	12
CCCCn1cc(S(=O)(=O)c2ccc(OC)cc2)c(=O)c2cc(F)c(N3CCCC3)cc21	-3	-12
O=C(N1CCCC1)C12CC3CC(CC(C3)C1)C2	4	2
COc1ccc(OCCNC(=O)c2cc(-c3ccc4c(c3)OCO4)nc3ccccc23)cc1	7	7
CC(=O)N1N=C(c2ccc(Cl)cc2)CC1c1ccc2nccnc2c1 (stereo not drawn)	4	3
COc1ccccc1N1CCN(C(=O)C[C@@H]2CCNC[C@@H]2Cc2cc(C(C)(C)C)on2)CC1	-9	-12
O=C(c1cccc(OCc2cccnc2)c1)N1CCC(N2CCOCC2)C1 (stereo not drawn)	-1	2
CCCN(C)c1nc(SCc2cccc(C(=O)NC3CC3)c2)nc(C)c1C	-3	10
Cc1nc(CNC(C)CCn2ccnc2C)cs1 (stereo not drawn)	3	-1
CC(C)n1cc(C(=O)N2CCNCC2)c2nn(-c3ccccc3)c(=O)c-2c1	-2	-3
Cc1ccc(C(=O)N2CC(C)OC(C)C2)c(C2CCN(C(=O)CC(C)C)CC2)n1 (stereo not drawn)	-10	-12
C=CCN(Cc1ccc(Cl)s1)S(=O)(=O)c1ccc2[nH]c(=O)[nH]c(=O)c2c1	21	20
CC[C@H](C)C(=O)N1CCC2(CCN(C)C2=O)CC1	11	11
CCN(CC)C(=O)Oc1ccc2c(ccn2Cc2ccccc2I)c1-c1ccc(F)c(F)c1	25	18
COC(C)(C)CNS(=O)(=O)c1c(F)cccc1Br	11	23
CCN(Cc1nc(C(C)(C)C)no1)c1cccc(F)c1	3	0
CCOC(=O)c1sc(NC(=O)c2ccncc2)c(C(=O)OCC)c1C	2	0
O=C(NC1CCCC1)C1CCCN(S(=O)(=O)N2CCCCC2)C1 (stereo not drawn)	1	-4
COCCNC(=O)Cn1nc2c(c1NC(C)=O)CSC2	-4	3
Cc1cccc(OCc2nc(CN(CCN(C)C)C(=O)c3ccccc3F)cs2)c1C	11	19
O=C(CCn1ncc(=O)c2ccccc21)OCc1ccno1	6	3
CCOC(=O)C1(Cc2ccccc2C)CCCN(C(=O)c2cn3cc(C)ccc3n2)C1 (stereo not drawn)	-7	-12
Cc1cc(N2CCN(C(=O)c3ccc(Br)cc3)CC2)nc(-c2cccc(F)c2)n1	5	9
NC(=O)NS(=O)(=O)c1ccc(NC=C2C(=O)OC3(CCCCC3)OC2=O)cc1	6	10
O=C(CN1CCOCC1)N1CCN(Cc2nc3ccccc3c(=O)[nH]2)CC1	1	0
COc1ccc(CCN(Cc2ccc(C)o2)C(=O)CN(CC2CCCO2)C(=O)CCc2ccccc2)cc1OC (stereo not drawn)	0	-2
CCCc1cc(C(=O)N2CCCCC2CCc2ccc(O)cc2)n[nH]1 (stereo not drawn)	-3	-7
CCCN1CCC(C(=O)NC(c2ccc(C)cc2)c2ccccn2)CC1 (stereo not drawn)	-5	3
CC(C)N1CCCC(Nc2cccc(CO)c2)C1=O (stereo not drawn)	0	-2
CC(=O)c1ccc(OCCCC(=O)NC2CCOc3ccccc32)cc1 (stereo not drawn)	13	10
CC1CCN(C(=O)Cn2c(-c3ccncc3)nc3ccccc32)CC1	-7	-12
CCOc1ccc(-c2ccc(SCC(=O)N3CCc4ccccc43)nn2)cc1	1	1
O=C(NCc1ccccc1)c1cccnc1N1CCCC1	0	-2
O=C1OCCC1N1CCN(S(=O)(=O)c2ccc([N+](=O)[O-])cc2)CC1 (stereo not drawn)	2	-1
O=C(c1ccco1)N1CCCC(NS(=O)(=O)NCc2ccccc2)C1 (stereo not drawn)	6	7
Fc1ccc(C2CCN(C(=S)Nc3cccc(C(F)(F)F)c3)CC2)cc1	30	11
Brc1cc2c(s1)CNCC2	10	8
Cc1cn2c3c(=O)n(CC(=O)c4ccccc4)c(=O)n(C)c3nc2n1C1CCCCC1	21	21
COCCCn1c(CN2CCN(C(C)C)CC2)cnc1S(=O)(=O)C1CCCC1	17	6
Cc1nn(-c2ccc(F)cc2)c2nc(CCC(C)C)nc(N3CCCN(C(=O)CSc4ccccc4)CC3)c12	12	10
CS(=O)(=O)c1cccc2sc(Cl)nc12	1	0
CCc1nnc(CN2CCOc3c(O)cc(-c4ccccc4C)cc3C2)o1	-2	-3
COc1cc(CCC(=O)N2CCN(C(=O)c3ccccc3)CC2)ccc1C	0	-6
O=[N+]([O-])c1cc(S(=O)(=O)N2CCCC2)ccc1NC1CCS(=O)(=O)C1 (stereo not drawn)	18	15
O=C(c1ccc(CN2CCCCC2)cc1)N1CCCC1Cn1cccn1 (stereo not drawn)	9	4
COc1ccc(N2C(=O)c3ccc(-c4nc5cc(Cl)ccc5c(=O)o4)cc3C2=O)cc1	-6	-13
O=C(COc1ccc2ccccc2c1)NCc1cc(-c2cc3ccccc3o2)on1	4	5
C=CCOc1cccc(C(=O)N2CCC3(CC2)CC3C(=O)N2CCN(c3ccccc3)CC2)c1 (stereo not drawn)	13	6
COc1ccc(C(=O)C2CCCN(Cc3ccc(C#CCCO)cc3)C2)cc1F (stereo not drawn)	-7	-9
CSc1nc(C(=O)N2CCCC(Nc3ccc(F)cc3)C2)cs1 (stereo not drawn)	1	-1
CCCn1cc(C2CCN(C(=O)COC(C)=O)CC2)c2ccccc21	-16	-17
CCOC1=NN(c2ccc([N+](=O)[O-])cc2)C(=O)/C1=C\c1cccc([N+](=O)[O-])c1	-2	3
Additional compounds.
SMILES	NPYLR7 ag	NPYLR7 ag max-min
C=C(C)COc1ccccc1C(=O)NCCNS(C)(=O)=O	-1	-1
CCc1c(C)nn(-c2ccc(C(=O)N3CCC(NC(=O)OC(C)(C)C)C3)cc2)c1C (stereo not drawn)	9	-8
COCCCN(CC(=O)N(Cc1ccc2c(c1)OCO2)Cc1cccs1)S(=O)(=O)c1cccc2cccnc12	-10	-2
O=C(CNCCN1CCCC1)N1CCc2sccc2C1COc1ccc(F)cc1 (stereo not drawn)	26	18
CSc1ccc(CN(C(=O)c2ccc(C(C)=O)s2)C2CC2)cc1	12	5
CSCc1nc2sc(C(=O)NC3CCOc4ccccc43)c(C)c2c(=O)[nH]1 (stereo not drawn)	20	10
O=C(NCc1nc2ccccc2n1CCCCOc1ccccc1Cl)c1ccco1	-5	-6
Cc1nc(C)c(C(=O)N2C[C@H]3OC(=O)N(CCN4CCCCC4)[C@H]3C2)s1	14	11
Cc1ccc2c(c1)CN(C(=O)CCOc1ccccc1)CC(c1ccsc1)O2 (stereo not drawn)	3	0
CC(C)c1ccc(NC(=O)c2cc3n(n2)CCN(Cc2ccc(C(F)(F)F)cc2)C3=O)cc1	17	7
Cc1cc(OCC(=O)NNC(=O)c2ccccc2)cc(C)c1Cl	11	6
Cc1nn(-c2nc(C)c(C)c(=O)[nH]2)c(C)c1CCC(=O)NCC1CCCO1 (stereo not drawn)	13	4

Shown as labelled records: 4 of the compounds above.
Cc1nc(C)c(C(=O)N2C[C@H]3OC(=O)N(CCN4CCCCC4)[C@H]3C2)s1
  NPYLR7 ag: 14
  NPYLR7 ag max-min: 11

Cc1ccc2c(c1)CN(C(=O)CCOc1ccccc1)CC(c1ccsc1)O2 (stereo not drawn)
  NPYLR7 ag: 3
  NPYLR7 ag max-min: 0

CC(C)c1ccc(NC(=O)c2cc3n(n2)CCN(Cc2ccc(C(F)(F)F)cc2)C3=O)cc1
  NPYLR7 ag: 17
  NPYLR7 ag max-min: 7

Cc1cc(OCC(=O)NNC(=O)c2ccccc2)cc(C)c1Cl
  NPYLR7 ag: 11
  NPYLR7 ag max-min: 6

Following part:
SMILES	NPYLR7 ag	NPYLR7 ag max-min
Cc1ccc(C(=O)Nn2cnc3c(cnn3-c3ccccc3)c2=O)cc1	4	3
Cc1ccc(-c2ccc(=O)n(CCCNC(=O)c3ccc(F)cc3)n2)cc1	-3	-4
CC1(C(=O)NCc2ccco2)CCN1C(=O)C/C=C/c1ccccc1 (stereo not drawn)	-4	-9
COc1cccc(CO[C@]2(C(=O)NCCN(C)C)CC(OCc3ccc(C(F)(F)F)cc3)[C@@H]3OC(C)(C)O[C@@H]3C2)c1 (stereo partly drawn)	26	21
Cn1cc(C(=O)N2CCCC(CO)C2)c2ccccc21 (stereo not drawn)	1	0
O=C(Cc1ccccc1)NC[C@@H]1CCNC[C@H]1O	0	1
CS(=O)(=O)c1cc(C(=O)NC2CCCCC2)ccc1Cl	-9	-7
CN1CCC2(CCN(C(=O)CCC(=O)Nc3cccc(O)c3)CC2)C1	3	1
O=C(CCC1CCN(C(=O)c2cc(C3CC3)[nH]n2)CC1)N1CCC(Cc2ccccc2)CC1	8	-2
COc1cccc(Cc2nsc(N3CCCC(C(=O)N4CCN(C/C=C/c5ccccc5)CC4)C3)n2)c1 (stereo not drawn)	-8	-12
CC(C)C(N)c1ncnn1C (stereo not drawn)	2	-2
CCOc1ccc2nc(N3CCCC(C(=O)NCc4cccs4)C3)nc(C)c2c1 (stereo not drawn)	17	7
CCN(C(=O)c1cnc2scc(C)n2c1=O)c1ccccc1	3	-2
CCn1ncnc1C(C)NC(=O)CN1CCOc2ccccc2C1 (stereo not drawn)	5	-8
COC(=O)c1ccc(C(C)N(C)C)o1 (stereo not drawn)	0	-1
CCC(CC)C(=O)Nc1nnc(SCc2cc(=O)c(OC(=O)c3cc4ccccc4o3)co2)s1	0	-3

For convenience, some entries already given.
SMILES	NPYLR7 ag	NPYLR7 ag max-min
CCCn1cc(C2CCN(C(=O)COC(C)=O)CC2)c2ccccc21	-16	-17
CCOC1=NN(c2ccc([N+](=O)[O-])cc2)C(=O)/C1=C\c1cccc([N+](=O)[O-])c1	-2	3
C=C(C)COc1ccccc1C(=O)NCCNS(C)(=O)=O	-1	-1
CCc1c(C)nn(-c2ccc(C(=O)N3CCC(NC(=O)OC(C)(C)C)C3)cc2)c1C (stereo not drawn)	9	-8
COCCCN(CC(=O)N(Cc1ccc2c(c1)OCO2)Cc1cccs1)S(=O)(=O)c1cccc2cccnc12	-10	-2
O=C(CNCCN1CCCC1)N1CCc2sccc2C1COc1ccc(F)cc1 (stereo not drawn)	26	18
CSc1ccc(CN(C(=O)c2ccc(C(C)=O)s2)C2CC2)cc1	12	5
CSCc1nc2sc(C(=O)NC3CCOc4ccccc43)c(C)c2c(=O)[nH]1 (stereo not drawn)	20	10
O=C(NCc1nc2ccccc2n1CCCCOc1ccccc1Cl)c1ccco1	-5	-6
Cc1nc(C)c(C(=O)N2C[C@H]3OC(=O)N(CCN4CCCCC4)[C@H]3C2)s1	14	11
Cc1ccc2c(c1)CN(C(=O)CCOc1ccccc1)CC(c1ccsc1)O2 (stereo not drawn)	3	0
CC(C)c1ccc(NC(=O)c2cc3n(n2)CCN(Cc2ccc(C(F)(F)F)cc2)C3=O)cc1	17	7
Cc1cc(OCC(=O)NNC(=O)c2ccccc2)cc(C)c1Cl	11	6
Cc1nn(-c2nc(C)c(C)c(=O)[nH]2)c(C)c1CCC(=O)NCC1CCCO1 (stereo not drawn)	13	4
Cc1ccc(C(=O)Nn2cnc3c(cnn3-c3ccccc3)c2=O)cc1	4	3
Cc1ccc(-c2ccc(=O)n(CCCNC(=O)c3ccc(F)cc3)n2)cc1	-3	-4
CC1(C(=O)NCc2ccco2)CCN1C(=O)C/C=C/c1ccccc1 (stereo not drawn)	-4	-9
COc1cccc(CO[C@]2(C(=O)NCCN(C)C)CC(OCc3ccc(C(F)(F)F)cc3)[C@@H]3OC(C)(C)O[C@@H]3C2)c1 (stereo partly drawn)	26	21
Cn1cc(C(=O)N2CCCC(CO)C2)c2ccccc21 (stereo not drawn)	1	0
O=C(Cc1ccccc1)NC[C@@H]1CCNC[C@H]1O	0	1
CS(=O)(=O)c1cc(C(=O)NC2CCCCC2)ccc1Cl	-9	-7
CN1CCC2(CCN(C(=O)CCC(=O)Nc3cccc(O)c3)CC2)C1	3	1
O=C(CCC1CCN(C(=O)c2cc(C3CC3)[nH]n2)CC1)N1CCC(Cc2ccccc2)CC1	8	-2
COc1cccc(Cc2nsc(N3CCCC(C(=O)N4CCN(C/C=C/c5ccccc5)CC4)C3)n2)c1 (stereo not drawn)	-8	-12
CC(C)C(N)c1ncnn1C (stereo not drawn)	2	-2
CCOc1ccc2nc(N3CCCC(C(=O)NCc4cccs4)C3)nc(C)c2c1 (stereo not drawn)	17	7
CCN(C(=O)c1cnc2scc(C)n2c1=O)c1ccccc1	3	-2

Bioassay records (PubChem)
